Vif-A3G inh: blocks the Vif interaction with human APOBEC3G; HeLa A3G-eYFP + Vif (tagged APOBEC3G with the HIV-1 protein that degrades it), YFP fluorescence, overnight; Potency, µM (top dose mostly 46.1 µM), inactives show at the highest dose activity, negative = active, actives largely listed as inhibitors; 410,000 compounds, 0.076% hits; AID 602310; Q9HC16;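 also: potency is read from the fitted curve at half-maximal effect; % is scaled to controls: 0 for no effect and ±100 for the full control effect; nearly all actives have a fitted effect of over 60% in size; hits raise eYFP signal because A3G escapes Vif-driven loss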
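Read-out is eYFP fluorescence (Ex 488/Em 500-530) from Vif-expressing HeLa A3G-eYFP cells; more signal means A3G escaped Vif-mediated degradation. Cells plated overnight, compound pinned in, incubated overnight at 37 deg C.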
LDHA block: inhibitors of human lactate dehydrogenase A; P00338; purified LDHA, NADH/diaphorase-resazurin fluorescence; active compounds read low; activity change, % (values are at about 110 or 230 µM); 480,000 compounds, 0.15% hits; AID 1347041; in the data active = activity change below about -30%;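 also: plate controls were DMSO wells for no effect and wells without enzyme for full effect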
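Human LDH5 (2 nM) was incubated with 0.06 mM NADH and 0.2 mM pyruvate for 5 min at room temperature in Tris pH 7.4. Remaining NADH was coupled through diaphorase/resazurin, and resorufin fluorescence was read at 0 and 20 min.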
PI4K2A block: blocks human PI4K2A kinase activity; purified PI4K2A, ADP-Glo luminescence, 1 h; active compounds read low; Q9BTU6; AID 1346378; activity change, negative = inhibition, % at 76.9 µM; 420,000 compounds, 0.13% hits; in the data active = activity change below about -50%;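 also: -100% = wells without enzyme as full effect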
Target sequence (Q9BTU6 whole entry, looked up): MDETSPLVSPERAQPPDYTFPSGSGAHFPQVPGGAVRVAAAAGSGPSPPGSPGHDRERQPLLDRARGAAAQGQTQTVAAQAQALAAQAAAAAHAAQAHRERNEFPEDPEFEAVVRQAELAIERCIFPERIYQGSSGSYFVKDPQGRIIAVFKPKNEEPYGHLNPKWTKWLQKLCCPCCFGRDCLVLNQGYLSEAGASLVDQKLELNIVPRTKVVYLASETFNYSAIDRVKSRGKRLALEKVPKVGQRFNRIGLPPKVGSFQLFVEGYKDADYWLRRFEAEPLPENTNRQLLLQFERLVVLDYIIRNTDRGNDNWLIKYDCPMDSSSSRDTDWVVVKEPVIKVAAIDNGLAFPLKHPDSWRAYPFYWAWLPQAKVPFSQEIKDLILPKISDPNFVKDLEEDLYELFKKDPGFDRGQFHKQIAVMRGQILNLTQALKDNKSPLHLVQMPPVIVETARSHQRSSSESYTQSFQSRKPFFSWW
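In this quantitative HTS, ADP production by PI4K2A was quantified luminescently after 1 h at ambient temperature; 100 microM adenosine served as plate-quality control.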
GRP78 ERSR act: inducers of ER stress response in human glioma cells; 420,000 compounds, 0.02% hits; Potency, µM, inactives show at the highest dose activation, most hits filed as activators; U87-MG GRP78 promoter luciferase reporter, 16 h; also: potency is read from the fitted curve at half-maximal effect; series mostly up to about 76 µM; % of control where 0% means no effect; nearly all actives have a fitted effect of over 35% in size
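Stably transfected U87-MG glioma cells carrying a GRP78-based luciferase sensor; 16 h compound incubation. Luminescence end-point read 10 min after Bright-Glo addition at room temperature.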
RXFP1 ag: agonists of human relaxin receptor RXFP1; HEK293T-RXFP1 cAMP TR-FRET, 30 min; response scale: percent of porcine relaxin response, buffer zero; Potency, µM (titrated, usually from 57.5 µM), for the others: at the highest dose activation, hits mostly activators; 370,000 compounds, 0.3% hits; AID 2676; also: potency is read from the fitted curve at half-maximal effect; % is scaled to controls: 0 for no effect and ±100 for the full control effect; nearly all actives have a fitted effect of over 60% in size; many of its hits are not listed in these tables
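cAMP rise read by TR-FRET after 30 min, 37C compound exposure (up to 58 uM) in RXFP1-transfected HEK293 cells with Ro 20174 present. EC50 from Hill-equation fits, with 29 nM porcine relaxin as 100% and buffer as basal.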
Vif-APOBEC3F blk: blocks the Vif interaction with APOBEC3F. HeLa A3F-eYFP + Vif (tagged APOBEC3F with the HIV-1 protein that degrades it), YFP fluorescence increase. Potency, µM (titrated, usually from 46.1 µM), inactives show top-dose activity, negative = active. 390,000 compounds, 0.2% hits. AID 602313; also: potency is read from the fitted curve at half-maximal effect; % of control where 0% means no effect; nearly all actives have a fitted effect of over 65% in size
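Fluorescence increase (Ex 488/Em 500-530) after overnight compound treatment at 37 deg C flags inhibition of Vif-driven A3F-eYFP loss in stable HeLa A3F-eYFP/Vif cells seeded overnight beforehand.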
The depositor's hits bear a star; . = no result given; & = joins results of further samples. Unless noted, calls follow the shape of the dose curve; as a rule, active = well fitted curve in the direction sought with a large enough effect; inconclusive = small, poorly fitted or top-dose-only effect, or another doubt; inactive = no such curve, though single readings can be large; an effect the other way counts as inactive or inconclusive. Some of the compounds tested; rates above refer to the full screens.

1) O=C1CC[C@@]2(O)[C@H]3Cc4ccc(O)c5c4[C@@]2(CCN3CC2CC2)[C@@H]1O5
2) O=C1C=CC(=O)C=C1
3) CCOC(=O)c1cncn1[C@@H](C)c1ccccc1
4) O=C1CC[C@@]2(O)C3Cc4ccc(O)c5c4C2(CCN3CC2CC2)[C@H]1O5 (stereo partly specified)
5) CC[C@@H](CO)NC(=O)[C@H]1C=C2c3cccc4[nH]cc(c34)C[C@H]2N(C)C1
6) O=C1CC[C@@]2(O)[C@H]3Cc4ccc(O)c5c4[C@@]2(CCN3CC2CC2)[C@H]1O5
7) CC[C@H](CO)NC(=O)[C@H]1C=C2c3cccc4[nH]cc(c34)C[C@@H]2N(C)C1
8) O=C(O)Cc1ccccc1

assay / entry	1	2	3	4	5	6	7	8
Vif-A3G inh	.	1%&4%	-6%	.	.	-1%	.	.
LDHA block	.	-7&10	-2	.	.	-5	.	.
PI4K2A block	.	-4&6	-4	2	.	2&2	.	1
GRP78 ERSR act	-5%	-6%&-3%&-3%	-4%&-4%	-1%&-4%	-5%	-2%	-4%	-8%
RXFP1 ag	.	.	-1.0%	.	.	2.3%	.	.
Vif-APOBEC3F blk	.	6%	-1%	.	.	-18%	.	.

Reprinted, entries 1 to 8
1) O=C1CC[C@@]2(O)[C@H]3Cc4ccc(O)c5c4[C@@]2(CCN3CC2CC2)[C@@H]1O5
2) O=C1C=CC(=O)C=C1
3) CCOC(=O)c1cncn1[C@@H](C)c1ccccc1
4) O=C1CC[C@@]2(O)C3Cc4ccc(O)c5c4C2(CCN3CC2CC2)[C@H]1O5 (stereo partly specified)
5) CC[C@@H](CO)NC(=O)[C@H]1C=C2c3cccc4[nH]cc(c34)C[C@H]2N(C)C1
6) O=C1CC[C@@]2(O)[C@H]3Cc4ccc(O)c5c4[C@@]2(CCN3CC2CC2)[C@H]1O5
7) CC[C@H](CO)NC(=O)[C@H]1C=C2c3cccc4[nH]cc(c34)C[C@@H]2N(C)C1
8) O=C(O)Cc1ccccc1

assay / entry	1	2	3	4	5	6	7	8
Vif-A3G inh	.	1%&4%	-6%	.	.	-1%	.	.
LDHA block	.	-7&10	-2	.	.	-5	.	.
PI4K2A block	.	-4&6	-4	2	.	2&2	.	1
GRP78 ERSR act	-5%	-6%&-3%&-3%	-4%&-4%	-1%&-4%	-5%	-2%	-4%	-8%
RXFP1 ag	.	.	-1.0%	.	.	2.3%	.	.
Vif-APOBEC3F blk	.	6%	-1%	.	.	-18%	.	.

Source: PubChem BioAssay (National Center for Advancing Translational Sciences (NCATS))
